NPR1 antag – antagonists of human natriuretic peptide receptor Npr1 | hit rate 1.6% among 76,000 | Potency, µM (highest dose often 46.3 µM), for inactives: at the top dose activity change, negative = inhibition, actives largely listed as inhibitors | AID 1347048 | HEK293 hNpr1 GloSensor cGMP, ANP-stimulated luminescence | P16066; active = well fitted inhibition curve with a large enough effect; inconclusive = small, poorly fitted or top-dose-only effect; inactive = no such curve, though single readings can be large or run the other way;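 further: nearly all actives have a fitted effect of over 60% in size; nearly all hits also lower the signal before the agonist is added; a reference antagonist and vehicle were the controls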
Target sequence (P16066 whole entry, looked up): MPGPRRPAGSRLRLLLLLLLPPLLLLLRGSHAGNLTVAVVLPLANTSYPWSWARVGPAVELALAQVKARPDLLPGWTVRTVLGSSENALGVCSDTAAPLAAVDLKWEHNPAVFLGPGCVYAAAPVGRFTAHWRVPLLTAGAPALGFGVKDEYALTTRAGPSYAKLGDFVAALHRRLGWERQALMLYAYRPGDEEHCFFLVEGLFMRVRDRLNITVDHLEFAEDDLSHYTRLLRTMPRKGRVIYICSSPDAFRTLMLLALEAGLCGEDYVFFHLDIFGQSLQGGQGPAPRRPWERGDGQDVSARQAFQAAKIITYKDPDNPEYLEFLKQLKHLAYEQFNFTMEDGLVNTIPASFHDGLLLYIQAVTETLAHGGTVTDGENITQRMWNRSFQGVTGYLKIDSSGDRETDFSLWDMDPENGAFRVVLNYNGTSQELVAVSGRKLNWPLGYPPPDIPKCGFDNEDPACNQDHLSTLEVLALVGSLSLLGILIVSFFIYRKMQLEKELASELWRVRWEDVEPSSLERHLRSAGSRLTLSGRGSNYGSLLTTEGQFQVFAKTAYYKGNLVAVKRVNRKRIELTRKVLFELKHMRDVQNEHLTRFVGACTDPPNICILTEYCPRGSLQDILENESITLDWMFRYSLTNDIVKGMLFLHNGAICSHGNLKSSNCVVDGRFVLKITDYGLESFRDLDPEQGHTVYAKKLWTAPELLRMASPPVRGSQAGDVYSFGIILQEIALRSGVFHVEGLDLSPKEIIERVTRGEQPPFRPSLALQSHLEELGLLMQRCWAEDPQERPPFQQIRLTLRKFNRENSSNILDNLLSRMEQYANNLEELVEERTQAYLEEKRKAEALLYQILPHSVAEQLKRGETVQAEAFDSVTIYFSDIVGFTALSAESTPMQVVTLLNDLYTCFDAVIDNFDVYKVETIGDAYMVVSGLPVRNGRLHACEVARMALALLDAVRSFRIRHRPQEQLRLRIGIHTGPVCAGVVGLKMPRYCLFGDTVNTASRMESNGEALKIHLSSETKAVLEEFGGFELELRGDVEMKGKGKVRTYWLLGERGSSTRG
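HEK293 cells stably expressing human Npr1 and cGMP GloSensor pGS-40F, loaded 2 h with 2% GloSensor reagent, given compound 30 min at room temperature. Luminescence read before and 20 min after 0.1 nM hNppA.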
* hit, by the source's call; u = inconclusive; [ ] = dose if it differs, or a comment. On the % scale 0 is the no-effect control and ±100 the full control effect; potency means the concentration at half of the fitted maximal effect. Some of the compounds tested (hit frequency here may not be typical).

SMILES	NPR1 antag
COCc1nc(NCCc2nc3ccccc3s2)cc(C2CC(N)C2)n1 (configuration not stated)	-2%
O=C(Cc1cccc(F)c1)N1CCC(Cc2nc(-c3cnccn3)no2)CC1	6%
COc1ccc(CCC(=O)N2CCCC(c3nc(C)ncc3-c3cccc(C)c3)C2)cc1OC (configuration not stated)	1%
COCCOC1CCN(C(=O)c2cc(C)n(CCOC)c2C)CC1	1%
Cc1nccnc1N1CCC(c2nnc(CN3CCCC3)n2C)CC1	1%
O=C1NC(C(=O)NCc2ccccc2)Cn2cccc21 (configuration not stated)	4%
COc1ccccc1CNC1(Cc2cc(CN3CCOCC3)on2)COC1	0%[70.6 µM]
Cc1ccccc1-c1cnc2[nH]cc(CC(=O)NC3CC3)c2c1	14µM*
NC(=O)[C@@H]1CN(C2CCSCC2)C[C@H]1COc1ccncc1	-1%
O=C(NCCOc1ccccc1)c1cnc2n1CCN(Cc1ccc3[nH]ccc3c1)CC2	0%[70.6 µM]
C[S+](=O)([O-])N1CC2(Cc3ccccc31)CN(C(=O)C1CC1)C2	-3%[70.6 µM]
Cc1noc(-c2cccc(OC3CN(C(=O)c4cc(F)ccc4F)C3)c2)n1	5%
COC(=O)[C@@H](C)NC(=O)[C@H]1CN(S(=O)(=O)c2ccccc2)CCN1C(=O)N1CCOCC1	6%
O=C(COc1ccc(F)cc1)N1CCc2nn(Cc3ccccc3)c(=O)n2CC1	-16%
CN(C)C[C@@H]1CN(Cc2cccnc2)C[C@H]1NC(=O)C1(c2ccccc2)CC1	5%
CC1CCN(C(=O)c2ccccc2OCC2CCCN(C3CCC3)C2)CC1 (configuration not stated)	-3%
CCCOc1ccc(CN2C[C@@H](CO)[C@H](C(=O)N(C)C)C2)cc1	-11%
Cc1noc(C)c1S(=O)(=O)N1CCC2(C1)OC(=O)Nc1cnccc12 (configuration not stated)	25%
c1coc(-c2nc(CNC3CCC4(CCNCC4)CC3)no2)c1	-2%
CN(CCc1ccccn1)[C@H]1[C@@H]2OC[C@@H](O2)[C@@H](N(CC2CC2)CC2CC2)[C@@H]1O	2%[70.6 µM]
CN(C)C(C(=O)N1CCN(c2ncccc2C#N)CC1)c1cccc(F)c1 (configuration not stated)	4%
Cc1ccc(NC(=O)CN2C(=O)NC3(CCC(C)CC3)C2=O)c(Cl)c1 (configuration not stated)	-11%
O=C(CCC1CCN(C(=O)c2ccccc2F)CC1)NC1CC1	3%
Cc1ccc(C(=O)N2CCC(Oc3ccccc3-c3nc(-c4ccncc4)no3)C2)cn1 (configuration not stated)	10%
COc1ccc(-c2cc(N3CCCC(NC(=O)c4ccc(C)c(F)c4)C3)n[nH]2)cc1 (configuration not stated)	-18%
New compounds follow:
SMILES	NPR1 antag
CC(C)CNC(=O)N1CCCC(c2nc(-c3cccnc3)no2)CCNC(=O)CC1 (configuration not stated)	6%
CCc1ccc(CNC(=O)CN2C(=O)C(c3ccccc3)=NC23CCCC3)cc1	2%
Cc1ccc(NC(=O)Cn2c(C)cc3nc4n(c(=O)c32)CCC4)c(C)c1	3%
O=C(Cn1c(=O)oc2ccccc21)N1CCC2(CC1)CC(OCC1CC1)CCO2 (configuration not stated)	0%
Cc1ccc(C(=O)NCc2nnc3cc(-c4nc(C)no4)ccn23)cc1	-1%
COc1ccc(NC(=O)c2cc3n(n2)CC(c2ccc4c(c2)OCO4)OC3)c(OC)c1 (configuration not stated)	-5%
Cc1ccc([S+](=O)([O-])N2CCc3nc(C4CC4)nc(-c4ccc(Cl)cc4)c3C2)cc1	-1%
Cc1ccc(NC(=O)N2CCC(Oc3ncccc3C(=O)N(C)C)C2)cc1 (configuration not stated)	-2%
COc1cccc(C(=O)N2CCC(N3C[C@H](O)C[C@H]3C(=O)N3CCN(c4ccccc4)CC3)CC2)c1	1%
COc1ccccc1-c1cc(C(=O)Nc2ccc3c(c2)C(=O)N2CCC[C@H]2C(=O)N3)[nH]n1	2%
CN(Cc1ccccc1)C(=O)c1ccnc(-c2nnc3ccc(Nc4ccccc4)nn23)c1	u
CN1C(=O)N(C)C2(CCN(CCOc3ccccc3)C2)C1=O (configuration not stated)	2%
COc1cccc(NC(=O)CCC2CCN(C(=O)c3ccccc3)CC2)c1	-8%
COc1ccc(CC(=O)N2CCCN(c3cc(-c4ccc(Cl)cc4)[nH]n3)CC2)cc1	u
O=C1Cc2c(-c3cccc(O)c3)n[nH]c2CN1CC1CC1	-2%[70.6 µM]
CC(C)CCNC(=O)C1c2ccccc2C(=O)N(Cc2ccccc2)C12CCCC2 (configuration not stated)	-14%
COCCC(=O)N1CCC2(CC1)CC(C(=O)N1CCOCC1)N(C)C2 (configuration not stated)	0%
CC(C)CN1CCN(C(=O)c2ccc3c(c2)CC(=O)N3Cc2ccc(F)cc2)CC1	-5%
O=C(c1ccccc1Cl)N1CCC2(CC1)NC(=O)N(Cc1ccccc1)C2=O	-13%
COc1ccc2nc([C@H]3CCN(Cc4ccc5c(c4)OCO5)C3)[nH]c2c1	-1%[70.6 µM]
CCN1c2cc(C(=O)Nc3ccc(C)c(F)c3)ccc2C(=O)N2CCCCCC21 (configuration not stated)	0%
Cc1cccc(S(=O)(=O)N(C)CC2CCOC2)c1 (configuration not stated)	-2%
Cc1ccc(-c2cn3c(n2)CO[C@@H](CNCc2ccc(S(C)(=O)=O)cc2)C3)cc1	-21%[70.6 µM]
Cn1c(CNC(=O)Cn2nc3c(cc2=O)CCCCC3)nc2ccccc21	-1%
C#CCO[C@@H]1CCN(S(=O)(=O)c2cccs2)[C@H](C(=O)N[C@H](C)C(N)=O)C1	6%[70.6 µM]
Next results.
SMILES	NPR1 antag
CC(C)(C)C(=O)N1CCCC(c2nn(-c3ccccc3)c(=O)[nH]2)C1 (configuration not stated)	0%[70.6 µM]
CC(=O)Nc1ccc(S(=O)(=O)N[C@H]2CO[C@H]3[C@@H]2OC[C@@H]3n2nnnc2-c2ccc(N(C)C)cc2)cc1	-1%
O=C(c1ccccc1OCC1CCCN(C2CCCC2)C1)N1CCOCC1 (configuration not stated)	-2%
Cc1cccc2nc(C(=O)N3CCCC(c4[nH]ncc4-c4ccccc4)C3)cn12 (configuration not stated)	u
CCC(=O)NCCC1CCN(C(=O)Nc2cc(F)cc(F)c2)CC1	6%
CC(C)(C)c1coc([C@@H]2COCCN2C2CCC2)n1	-1%[70.6 µM]
CN(C)c1ccc(CN2C[C@H](O)C[C@H]2c2nc(-c3cccnc3)no2)cc1	6%[70.6 µM]
CCOc1cc(=O)n2c(c1C(=O)Nc1ccc(S(N)(=O)=O)cc1)CCCC2	-1%
c1ccc(-c2nnc([C@H]3CCN(C4CCC4)C3)o2)cc1	-6%[70.6 µM]
Cc1ccc(S(=O)(=O)N2CCC(n3cnnc3C)CC2)c(C)c1	-2%
COc1cccc(CN2CCCC(Cc3ncc(C)n3Cc3ccccc3)C2)c1 (configuration not stated)	u
CC(C)(C)CC(=O)NC[C@H]1OC[C@@H](N(Cc2ccccc2)Cc2ccccc2)[C@@H]1O	1%[70.6 µM]
CC1=C[C@@H](CNCc2ccc(Cl)cc2)[C@H](C(C)C)C[C@H]1Cc1nnc(-c2cncn2C)o1	-12%
CCN1c2cc(C(=O)Nc3ccc(F)cc3)ccc2C(=O)N2CCCCCC21 (configuration not stated)	2%
O=C(COCc1ccccc1)N1CC[C@H]2COC(=O)N2c2cc(F)ccc2C1	-1%[70.6 µM]
Cc1ccccc1CNC(=O)[C@H]1CN(Cc2ccccc2)C[C@H]1C(=O)O	-4%
COc1ncccc1-c1nc(-c2c(C)noc2C)cc2[nH]c(C)cc12	3%[70.6 µM]
O=C1NCCOCCN(C(=O)Nc2ccc3c(c2)OCCO3)[C@@H]2CCCC[C@H]12	-23%
CN1C(=O)C2(CCN(C(=O)c3ccccc3)C2)c2ccccc21 (configuration not stated)	-1%[70.6 µM]
Cc1nc2c(c(-c3ccc(O)cc3)n1)CN(C(=O)c1ccc(F)cc1)CC2	-3%
O=C(c1ccc2nc(-c3ccc(F)cc3)cn2c1)N1CCC(F)CC1	-10%
CN(C)c1cccc(C(=O)N2CCC3(CC2)N=C(c2ccccc2)NO3)c1	-2%
O=C(NC1CCN(c2cc(-c3ccccc3)[nH]n2)CC1)c1ccc(Cl)cc1	-27%
COc1ccc(OC)c(NC(=O)c2cccc3c2CCN3C(=O)c2ccc(F)cc2)c1	-12%
CCc1nc(C)sc1C(=O)N1C[C@@H](C(=O)O)[C@H](c2cccc(OC)c2)C1	2%

For convenience, part of the list above.
SMILES	NPR1 antag
CC1=C[C@@H](CNCc2ccc(Cl)cc2)[C@H](C(C)C)C[C@H]1Cc1nnc(-c2cncn2C)o1	-12%
CCN1c2cc(C(=O)Nc3ccc(F)cc3)ccc2C(=O)N2CCCCCC21 (configuration not stated)	2%
O=C(COCc1ccccc1)N1CC[C@H]2COC(=O)N2c2cc(F)ccc2C1	-1%[70.6 µM]
Cc1ccccc1CNC(=O)[C@H]1CN(Cc2ccccc2)C[C@H]1C(=O)O	-4%
COc1ncccc1-c1nc(-c2c(C)noc2C)cc2[nH]c(C)cc12	3%[70.6 µM]
O=C1NCCOCCN(C(=O)Nc2ccc3c(c2)OCCO3)[C@@H]2CCCC[C@H]12	-23%
CN1C(=O)C2(CCN(C(=O)c3ccccc3)C2)c2ccccc21 (configuration not stated)	-1%[70.6 µM]
Cc1nc2c(c(-c3ccc(O)cc3)n1)CN(C(=O)c1ccc(F)cc1)CC2	-3%
O=C(c1ccc2nc(-c3ccc(F)cc3)cn2c1)N1CCC(F)CC1	-10%
CN(C)c1cccc(C(=O)N2CCC3(CC2)N=C(c2ccccc2)NO3)c1	-2%
O=C(NC1CCN(c2cc(-c3ccccc3)[nH]n2)CC1)c1ccc(Cl)cc1	-27%
COc1ccc(OC)c(NC(=O)c2cccc3c2CCN3C(=O)c2ccc(F)cc2)c1	-12%
CCc1nc(C)sc1C(=O)N1C[C@@H](C(=O)O)[C@H](c2cccc(OC)c2)C1	2%

(more compounds)
SMILES	NPR1 antag
O=C(Nc1cccc(F)c1)N1CCC2(CC1)SCC(=O)N2Cc1ccco1	3%
CCn1ccnc1C1CCN(C(=O)Cn2cccnc2=O)CC1	17%
COc1ccc(CNC(=O)N[C@@H]2CN(c3ccncn3)C[C@H]2CN(C)C)cc1	2%
COC(=O)[C@H](Cc1ccc(OC)cc1)NC(=O)[C@H]1CN(C(=O)Nc2ccccc2)CCN1C(=O)NC(C)C	11%
CN1CCNc2nc(COc3ccccc3OC(F)(F)F)n(Cc3ccccc3)c2C1=O	-15%
Cc1ncccc1C(=O)N1C[C@@H](COCC2CC2)[C@H](c2ccccn2)C1	3%
Cc1ccc(-n2c(C3CCN(C(=O)c4ccco4)CC3)n[nH]c2=O)cc1	2%
COCCN1CCC(N2CCN(S(=O)(=O)c3ccccc3)CC2)C1=O (configuration not stated)	2%
Cc1ccccc1-c1ccc(COc2ccc3c(cnn3CCC(=O)O)c2)cc1	-16%[70.6 µM]
O=C(CCn1cnc2ccccc2c1=O)NC1CCCN(CCc2ccccc2)C1 (configuration not stated)	-2%
COc1cc(OC)cc(C(=O)N2CCC[C@H]2c2nc(-c3ccccc3)no2)c1	-18%
O=C(c1cc(=O)[nH]c2cc(F)ccc12)N1CCCC(CCc2ccc(F)cc2)C1 (configuration not stated)	u
CN1CCCN(CC(=O)N2C[C@H](NS(C)(=O)=O)[C@@H](C3CC3)C2)CC1	-2%
CC(C)n1cc2cc(C(=O)O)sc2c1	-3%
CC1=C[C@@H](CNS(=O)(=O)c2ccccc2)[C@H](C(C)C)C[C@H]1CC(=O)NCc1ccc(C#N)cc1	-7%
COc1cccc(C(=O)N2CC(Oc3ccccc3-c3nc(-c4cnccn4)no3)C2)c1	-6%
Cc1cc(=O)n(CC(=O)NCc2ccccc2Br)c(N2CCOCC2)n1	-2%
Cc1ccccc1OCc1nc(C2CN(C(=O)Cc3cccc(F)c3)C2)no1	-19%
Cc1cccc(OCC(=O)N2CCC3(CC2)N(C)C(=O)CS3(=O)=O)c1	-1%
Cc1ccc(C)c(NC(=O)Cn2ccn3nc(-c4ccc(F)cc4)c(CO)c3c2=O)c1	1%
CCOC(=O)c1oc2ccc(S(=O)(=O)N3CCC(c4noc(C5CC5)n4)C3)cc2c1C (configuration not stated)	u
NC(=O)CN1CCC(C(=O)NCCCc2csc(N)n2)CC1	2%
CCOC(=O)c1cccnc1N1C[C@H]2OC(=O)N(Cc3ccccn3)[C@H]2C1	10%
COc1ccc(F)cc1-c1ccc(C(=O)NCCCn2ccnc2C(C)C)cn1	-5%
Cc1nc(NCCc2nc3ccccc3n2C)cc(C2CC(O)C2)n1 (configuration not stated)	0%
Continued:
SMILES	NPR1 antag
O=C(NCC1CCOCC1)c1ccc2[nH]ccc2c1	-2%
Cc1ccc(NC(=O)N2Cc3[nH]cnc3C[C@H]2c2nc(-c3ccc4ccccc4c3)no2)cc1	-26%
Cn1cc(C(=O)N2CCn3nc(C(O)CO)cc3C2)c(=O)[nH]c1=O (configuration not stated)	-3%
CCN1c2cc(C(=O)NCc3ccc(C)cc3)ccc2C(=O)N2CCCCCC21 (configuration not stated)	-8%
CCN(CC)C(=O)C(NC(=O)c1ccc(F)cc1)C1CCN(C(=O)c2ccccc2F)CC1 (configuration not stated)	-3%
O=C1NC2(CCN(Cc3ccc(OC(F)(F)F)cc3)C2)COc2ccccc21 (configuration not stated)	-12%
CC(O)c1cc2n(n1)CCN(C(=O)Cn1nnc(-c3ccc(F)cc3)n1)C2 (configuration not stated)	4%
CCC(C)NC(=O)Cc1csc2nc(C)c(-c3cc(C)n(-c4ccc(C)cc4C)n3)c(=O)n12 (configuration not stated)	0%
CC(C)CCC(=O)N1CCC(N2C(=O)CCC2C(=O)NC(C)C)CC1 (configuration not stated)	-9%
CNC(=O)[C@H]1C[C@H](Oc2cccnc2)CN1C(=O)NCCc1ccccc1	-3%
O=C(Nc1ccc([C@@H](O)[C@H]2COCC(=O)N2Cc2ccccc2)cc1)C1CCCC1	-6%[70.6 µM]
O=C(Cn1nc2c(cc1=O)CCCCC2)NCCn1ccc2c(Cl)cccc21	-22%
